High-throughput results (PubChem BioAssay)
Mtb growth: Mycobacterium tuberculosis H37Rv growth inhibition, cell based, confirmatory dose response (AID 1949) | most inactive calls were filed without a number and no value below 0 was filed | inhibition, % at 10 µg/mL; hits with a dose series show IC50 in µg/mL | 1.6% of 100,000 active;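 active = confirmed in a dose series; inconclusive = about 50% or more but not retested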;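 also: bacteria grown 7 days with compound before Alamar blue readout; 0% = untreated bacteria and 100% = reference antibiotic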
* marks the source's active call; other numbers are inactive results; i = inactive; ? = inconclusive.

| smiles | Mtb growth |
| --- | --- |
| CC(=O)Nc1ccc(NC(=O)c2ccccc2)cc1C | i |
| OCc1nc2ccccc2n1CCC1CCCCC1 | i |
| CCOC(=O)C1CCN(C(=O)CN(c2ccccc2OC)S(=O)(=O)c2ccc(OC)cc2)CC1 | i |
| CC(C)(C)C(=O)N1CCN(c2ccc([N+](=O)[O-])cc2C(F)(F)F)CC1 | 2% |
| CCOCCC(=O)N1CC(C)OC(C)C1 (centres undefined) | i |
| CCCCC(NC(=O)c1c(F)c(F)c(F)c(F)c1F)c1ccccc1 (centres undefined) | 1% |
| CN1CCN(C(=O)c2cc(I)ccc2NC(=O)c2cccc3ccccc23)CC1 | i |
| O=C(Nc1ccccc1F)C1CCN(C(=O)Cc2ccccc2)CC1 | i |
| O=C(Oc1ccc2c(=O)c(Oc3ccccc3Cl)coc2c1)c1cc2ccccc2oc1=O | i |
| Cc1cc(OCc2nc3ccccc3s2)ccc1[N+](=O)[O-] | i |

| smiles | Mtb growth |
| --- | --- |
| Cc1ccc(S(=O)(=O)NC(CC(=O)NC2CCCCCC2)c2ccccc2)cc1 (centres undefined) | i |
| CCCCC(=O)Nc1ccc(NC(=O)COc2ccc(Cl)cc2C)cc1OC | 4% |
| COc1ccccc1C(=O)Nc1ccc(-c2nnc3c4ccccc4c(C)nn23)cc1 | i |
| Cc1cc(NC(=O)CSc2nc3ccccc3c3nc4ccccc4n23)n[nH]1 | i |
| COc1ccc(NC(=O)COc2ccccc2)cc1NC(=O)c1ccco1 | i |
| S=C(Nc1ccc2c(c1)OCO2)N1CCC(Cc2ccccc2)CC1 | 4% |
| O=[N+]([O-])c1ccc2nc(CSc3nc4ccccc4o3)[nH]c2c1 | 3.2µg/mL* |
| O=C(Nc1ccc(Cl)cc1)c1ccc(O)cc1 | i |
| Cc1cccc(OC(C)C(=O)N2CCN(C)CC2)c1 (centres undefined) | i |
| O=C(O)C1CC=CCC1C(=O)NCCCCc1ccccc1 (centres undefined) | i |

| smiles | Mtb growth |
| --- | --- |
| Cc1cc(C)c2c(Nc3csc4nc(C)cc(C)c34)csc2n1 | ? |
| CCOC(=O)C1CCN(C(=O)c2c(OC)cccc2OC)CC1 | i |
| COc1ccc(Cl)cc1N(CC(=O)Nc1cccc(N(C)S(C)(=O)=O)c1)S(=O)(=O)c1ccc(C)cc1 | 6% |
| CCC(C)c1ccccc1OCC(=O)Nc1cccc(-c2nnc(-c3ccco3)o2)c1 (centres undefined) | 8.1µg/mL* |
| COc1ccc(C(=O)Nc2ccccc2C(=O)NC(C)c2ccccc2)cc1 (centres undefined) | 0% |
| CCCC(=O)Nc1ccccc1NC(=O)C1CCCCC1 | 2% |
| CC(C)(C)c1cc(C(=O)N/N=C/c2ccccc2O)n[nH]1 | i |
| N#C/C(=C\c1cccc(OC(=O)c2ccccc2Cl)c1)S(=O)(=O)c1ccccc1 | i |
| O=C(CS(=O)(=O)c1ccc2ccccc2c1)Nc1ccccc1Cl | 4.5µg/mL* |
| CCOc1ccc2nc(SCC(=O)NCCc3ccccc3)[nH]c2c1 | i |

| smiles | Mtb growth |
| --- | --- |
| COc1ccc(-c2cc(C(F)(F)F)c(C#N)c(SCC(=O)c3ccc(O)c(O)c3)n2)cc1OC | 14% |
| COc1ccccc1N1CCN(C2CC(=O)N(c3cccc(C)c3)C2=O)CC1 (centres undefined) | i |
| O=C(Nc1ccc(S(=O)(=O)N2CCCCCC2)cc1)C(c1ccccc1)c1ccccc1 | i |
| Cc1ccc(Cc2nc(-c3cccnc3)no2)cc1 | i |
| COc1ccc(CC(=O)NN2C(=O)c3ccccc3C2=O)cc1 | 10% |
| O=c1c2ccccc2[nH]c(=S)n1-c1ccc(Cl)cc1 | i |
| Cc1c(O)ccc(NC(=O)c2ccccc2Cl)c1C | i |
| O=S(=O)(CCc1nc2ccccc2o1)c1ccc2ccccc2c1 | 8% |
| COC(=O)c1c(-c2ccc(C)cc2)csc1NC(=O)c1c(-c2ccccc2)noc1C | 13% |
| Cc1cc(C)c(C#N)c(SCC(=O)Nc2ccc(C(N)=O)cc2)n1 | i |

| smiles | Mtb growth |
| --- | --- |
| CCOC(=O)C1CCN(C(=O)COc2ccc(S(=O)(=O)NCc3ccccc3)cc2Cl)CC1 | 6% |
| N#C/C(=C\c1c(F)cccc1Cl)S(=O)(=O)c1ccccc1 | i |
| COc1cccc(OCC(=O)c2ccc(Br)cc2)c1 | 0.37µg/mL* |
| Cc1cc(C)c(NS(=O)(=O)c2ccc(NC(=S)NCc3ccc(F)cc3)cc2)c(C)c1 | 6% |
| CC1=C(C(=O)Nc2cc(C)ccc2C)C(c2ccccc2Br)NC(=O)N1 (centres undefined) | i |
| COc1cccc(OC)c1C(=O)NC(=S)Nc1cc(-c2nc3ccccc3o2)ccc1Cl | i |
| COc1ccc(S(=O)(=O)N(CC(=O)Nc2ccccc2)c2ccc(Cl)cc2)cc1 | i |
| O=C(COc1ccc(Br)cc1)Nc1ccc(N2CCN(Cc3ccccc3)CC2)cc1 | i |
| COc1ccc(Cl)cc1NC(=O)C1C2C=CC(C2)C1C(=O)O (centres undefined) | i |
| O=C(CCc1nc2ccccc2[nH]1)Nc1cccc(C(F)(F)F)c1 | i |

| smiles | Mtb growth |
| --- | --- |
| O=C(Nc1ccc(Cl)cc1F)c1cccs1 | i |
| CCC(C)N1CCN(Cc2cccc(Cl)c2)CC1 (centres undefined) | i |
| CCn1cc(C(=O)O)c(=O)c2cnc(N3CCN(C(=S)Nc4cc(OC)ccc4OC)CC3)nc21 | i |
| O=C(CCc1ccccc1)NC(=S)Nc1cccc2nsnc12 | i |
| Cn1c(=O)c2c(ncn2CC(=O)NC2CCCCCC2)n(C)c1=O | i |
| CCOc1c(Cl)cc(C(=O)Nc2ccc(C)c([N+](=O)[O-])c2)cc1Cl | i |
| COC(=O)C1=NNC2C(=O)N(C3CCCCC3)C(=O)C12 (centres undefined) | i |
| CSc1ccccc1NC(=O)CN(C1CCCCC1)S(C)(=O)=O | i |
| COc1ccc(C(=O)N2CCN(S(=O)(=O)c3ccc(OC)cc3)CC2)cc1 | 1% |
| COc1ccccc1CNC(=O)C1CCCO1 (centres undefined) | i |

| smiles | Mtb growth |
| --- | --- |
| O=c1c2ccccc2nc2sc3ccccc3n12 | i |
| CC(C(=O)NCCSc1ccccc1)N(c1ccc(Cl)cc1)S(C)(=O)=O (centres undefined) | i |
| COC(=O)c1cc(-c2ccccc2)sc1NC(=S)Nc1ccc(Br)cc1Cl | i |
| CC1=C(C(=O)OC(C)(C)C)C(c2cccc(Cl)c2)NC(=S)N1 (centres undefined) | 22% |
| CC(Oc1ccccc1)C(=O)Nc1cc([N+](=O)[O-])ccc1O (centres undefined) | i |
| O=C(Nc1c(F)cc(F)cc1Br)c1cccnc1 | i |
| CC(=O)c1cn(CC(=O)NCCc2ccccc2)c2ccccc12 | i |
| O=c1c2ccccc2c(-c2ccc(Cl)cc2)nn1-c1cc(N2CCNCC2)ccc1[N+](=O)[O-] | i |
| COCCN1C2=C(C(=O)CC(C)(C)C2)C(c2cc(Cl)c(O)c(OC)c2)C2=C1CC(C)(C)CC2=O | i |
| CCOC(=O)c1c(NC(=O)CSc2ncnc3sccc23)sc2c1CCCCC2 | i |

| smiles | Mtb growth |
| --- | --- |
| Cc1cccc(C)c1N(CC(=O)Nc1cccnc1)S(C)(=O)=O | i |
| CCOc1ccc(N(CC(=O)Nc2cccc(C)c2C)S(=O)(=O)c2ccccc2)cc1 | 1% |
| Cc1cccc(NC(=O)CN(c2ccccc2Cl)S(C)(=O)=O)c1C | i |
| CC(C)=CCOc1ccc2c(C)c(C)c(=O)oc2c1 | 0% |
| Cc1nc(NC(=O)c2sc3ccccc3c2Cl)sc1C(=O)N(C)C | i |
| CC(C)=CCOc1cc(C)cc2oc(=O)cc(C)c12 | 5% |
| CCCCc1ccc(NC(=S)NCc2ccc3c(c2)OCO3)cc1 | 2% |
| O=c1nc(SCc2ccccc2Cl)sc2ccccc12 | 3% |
| CCCCNC(=O)NC12CC3CC(CC(C3)C1)C2 | i |
| CCNC(=O)C(C)SCc1ccccc1 (centres undefined) | i |

| smiles | Mtb growth |
| --- | --- |
| CCc1ccc(NC(=O)C2CCN(C(=O)c3cc(OC)c(OC)c(OC)c3)CC2)cc1 | i |
| O=C(Nc1cccc([N+](=O)[O-])c1)c1ccc2nc(N3C(=O)c4ccccc4C3=O)sc2c1 | i |
| COC(=O)c1cccc(NC(=O)CSCc2ccc([N+](=O)[O-])cc2)c1C | i |
| CCOc1cc(C(=O)NCc2ccc(Cl)c(Cl)c2)cc(OCC)c1OCC | i |
| CC(C)c1ccc(-c2cc(C(=O)N3CCOCC3)c3cc(Br)ccc3n2)cc1 | 34% |
| COc1cc(C(=O)NC(=S)NCCC2=CCCCC2)cc(OC)c1OC | i |
| O=C(NCC1CCCO1)c1cccc(NC(=O)c2cccs2)c1 (centres undefined) | i |
| CC(=O)Nc1ccccc1NC(=O)c1ccc(Cl)cc1[N+](=O)[O-] | i |
| COc1cccc(-c2cc(C(=O)Nc3ccc([N+](=O)[O-])cc3OC)c3ccccc3n2)c1 | i |
| CC(C)C(C(=O)Nc1ccc2ccccc2c1)N1C(=O)c2ccccc2C1=O (centres undefined) | i |

| smiles | Mtb growth |
| --- | --- |
| Cc1cc(C)c(C)c(Cn2c(C(C)O)nc3ccccc32)c1C (centres undefined) | i |
| O=C(COc1ccc([N+](=O)[O-])cc1)N1CCc2ccccc21 | i |
| CCCCC(CC)C(=O)Nc1nnc(C(CC)CC)s1 (centres undefined) | 3% |
| COc1ccc(C(=O)NC(C)CCc2ccccc2)c(O)c1 (centres undefined) | 3% |
| Cn1c(=S)[nH]c2ccc(Br)cc2c1=O | i |
| Cc1ccc(NC(=O)c2cc(NC(=O)C3C4C=CC(C4)C3C(=O)O)ccc2N2CCCCC2)cc1 (centres undefined) | 0% |
| N#C/C(=C\C=C\c1ccco1)c1nc(-c2ccc(Br)cc2)cs1 | 31% |
| Cc1ccc(-c2cc(C(=O)N3CCCCCC3)c3ccccc3n2)c(C)c1 | 11% |
| O=C(NC1CCCC1)OCc1ccc2c(=O)c(-c3ccc(F)cc3)coc2c1 | 0% |
| CCC(C)n1[nH]c(=O)c2c1NC(=O)CSC2c1ccc(Cl)cc1Cl (centres undefined) | 2% |

| smiles | Mtb growth |
| --- | --- |
| Cc1nc2ccc(F)cc2cc1C(=O)O | i |
| O=C(Oc1ccc(F)cc1)c1nc(SCc2ccccc2)ncc1Cl | i |
| Cc1c(C(=O)NC(=S)Nc2ccccc2N2CCOCC2)oc2ccccc12 | i |
| COc1ccccc1NC(=O)c1ccc(COc2cccc3ccccc23)cc1 | i |
| Cc1ccc(-c2nc3cccnc3o2)cc1NC(=O)COc1ccc(Cl)cc1C | i |
| O=C(Nc1ccc(Cl)cc1C(F)(F)F)c1ccccc1F | i |
| Cc1nn(C)cc1CNC(=O)c1cnn2c(C(F)F)cc(C3CC3)nc12 | i |
| CCc1cccc(CC)c1NC(=O)COC | i |
| COc1ccc(C(=O)Nc2cccc3cccnc23)cc1OC | i |
| O=S(=O)(Nc1ccc(Br)c(Cl)c1)c1ccc(F)cc1 | 4% |

| smiles | Mtb growth |
| --- | --- |
| CN(C)CCCN1C(=O)C(O)=C(C(=O)c2cccs2)C1c1ccc(F)cc1 (centres undefined) | i |
| Cc1cc(Cl)ccc1OC(C)C(=O)Nc1cccc(Br)c1 (centres undefined) | i |
| COc1ccc(CCNC(=S)N2CCN(c3ccc(C(C)=O)cc3)CC2)cc1OC | i |
| O=C(O)CCC(=O)Nc1ccc(F)c(F)c1 | i |
| O=C1CC(N(C(=O)c2ccco2)c2cccc(Cl)c2)C(=O)N1c1cccc(Cl)c1 (centres undefined) | i |
| Cc1ccc(NC(=O)CC(N)C(=O)O)cc1 (centres undefined) | i |
| CC1(C)CC(NC(=S)NC2CC2)CC(C)(C)N1 | i |
| CN(CC(=O)NCc1ccco1)S(=O)(=O)c1ccc(Cl)cc1 | i |
| CCS(=O)(=O)N1CCN(Cc2ccccc2)CC1 | i |
| CCC(=O)N1CCN(c2ccc(NCc3cc(Cl)c(OCc4ccccc4)c(OC)c3)cc2)CC1 | i |

| smiles | Mtb growth |
| --- | --- |
| O=c1[nH]c2ccc(C(F)(F)F)cc2n1-c1ccccc1 | 1% |
| O=C(CSc1nnc2scc(-c3ccccc3)n12)Nc1nsc(-c2ccccc2)n1 | 20% |
| COc1ccccc1-n1c(SCC(=O)N2CCc3ccccc32)nc2ccccc2c1=O | i |
| CCN1C(=O)CC(n2c(C)nc3ccccc32)C1=O (centres undefined) | i |
| CC(C)c1ccc(NS(=O)(=O)c2ccc(Br)s2)cc1 | i |
| O=C(Nc1ccccc1)c1cc(S(=O)(=O)NC2CCCCC2)ccc1Br | i |
| CCN(CC)c1ccc(C(O)c2nc3ccccc3n2CC)cc1 (centres undefined) | i |
| O=S(=O)(c1ccc2c(c1)OCCO2)N1CCc2ccccc2C1 | i |
| O=C(Nc1ccc(OCc2ccccc2)cc1)C1CCN(S(=O)(=O)c2ccc(Cl)cc2)CC1 | 5% |
| CCC(=O)NC(=S)Nc1ccccc1I | i |
| C=CCNCCOc1ccc(C)cc1[N+](=O)[O-] | i |
| CC(C(=O)c1ccccc1)S(=O)(=O)c1ccccc1 (centres undefined) | i |

Some of the compounds tested, so the mix of outcomes need not match the whole.
